SARS PLpro yeast – inhibitors of SARS-CoV papain-like protease in yeast. S. cerevisiae expressing SARS-CoV PLpro, growth rescue; control for the full effect not named in the record. 0.19% of 330,000 active. Potency, µM (series often up to 32.9 µM), inactives show at the top dose activity, positive = growth rescue; active means well fitted rising curve with a large enough effect; inconclusive means small, poorly fitted or top-dose-only effect; inactive means no such curve, though single readings can be large or run the other way; also: 0% is about no effect; nearly all actives have a fitted effect of over 55% in size; growth read by luminescence after 48 h
RE007 growth inh – less growth of the S. pombe RE007 Vpr strain | S. pombe RE007 Vpr strain, BacTiter-Glo ATP luminescence, 24 h; control for the full effect not named in the record | Potency, µM (highest dose often 92.2 µM), for inactives: top-dose activity change, negative = less growth | 0.21% of 360,000 active | AID 651644; active = well fitted falling curve with a large enough effect; inconclusive = small, poorly fitted or top-dose-only effect; inactive = no such curve, though single readings can be large or run the other way;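 also: % is scaled to controls: 0 for no effect and ±100 for the full control effect; nearly all actives have a fitted effect of over 50% in size; the assay follows cell death caused by Vpr and the record does not say whether a fall means rescue or toxicity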
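Fission yeast RE007 carrying one integrated HIV-1 vpr copy, seeded at OD 0.01 in PMG+AL medium with 23 nL pinned compound. Grown 24 h at 30 degrees; viability read by BacTiter-Glo luminescence after 5 min.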
2A StopGo – FMDV 2A StopGo reporter, luciferase signal; human cells with a luciferase reporter of 2A StopGo recoding; control for the full effect not named in the record; Potency, µM (highest dose often 57.9 µM), without a hit: top-dose signal change, negative = less light; 1.2% of 410,000 active; active = well fitted falling curve with a large enough effect; inconclusive = small, poorly fitted or top-dose-only effect; inactive = no such curve, though single readings can be large or run the other way; tested in HEK293T cells; also: % is scaled to controls: 0 for no effect and ±100 for the full control effect; nearly all actives have a fitted effect of over 45% in size; luciferase light after 4 h
Active calls of the source: *; & = joins results of further samples; [ ] = remark or other dose. Potency is read from the fitted curve at half-maximal effect. These rows are one share of the data (hit frequency here may not be typical).

For COc1cc(OC)cc(C(=O)NC(C(=O)OCn2nnc3ccccc3c2=O)C(C)C)c1 (configuration not stated) the results were SARS PLpro yeast 4%, RE007 growth inh 16% and 2A StopGo -7%.
Screening CCN(C[C@H]1N[C@@](CC)(C(=O)OC)[C@H]2C(=O)N(C)C(=O)[C@@H]12)C(=O)c1ccc(C(C)(C)C)cc1 returned SARS PLpro yeast 1%, RE007 growth inh -8% and 2A StopGo -2%.
`O=C(CCc1ccccc1)NCc1ccccc1` gave SARS PLpro yeast -1%, RE007 growth inh -1% and 2A StopGo 32%[activator].
For CCOC(=O)[C@H]1[C@H]2COc3ccc(OC)cc3[C@@H]2N2C(=O)CN(Cc3ccccc3)C(=O)[C@@]12C the results were SARS PLpro yeast 9%, RE007 growth inh 2% and 2A StopGo -20%.
Screening CC(OC(=O)C1CCN(S(=O)(=O)c2ccc3c(c2)OCCO3)CC1)C(=O)N(C)c1ccccc1 (configuration not stated) returned SARS PLpro yeast -3%, RE007 growth inh 2% and 2A StopGo -9%.
For Cc1cccc(NC(=O)c2nc[nH]c2C(=O)N2CCc3ccccc3C2)c1 the results were SARS PLpro yeast 2%, RE007 growth inh -20% and 2A StopGo -5%.
`CN1CC[C@]23c4c5ccc(O)c4OC2[C@H](O)C=CC3[C@H]1C5` (some centres not stated) gave SARS PLpro yeast -4%, RE007 growth inh -19% and 2A StopGo -22%.
For CC(=O)Nc1ccc(SC[C@H](Cc2ccccc2)N2CC[C@@H](C(C)(C)C)CCC2=O)cc1 the results were SARS PLpro yeast 4%, RE007 growth inh -3% and 2A StopGo -8%.
Screening CCCCC[C@@H]1C=C(C(=O)O)[C@H](c2ccc(C#N)cc2)N1S(=O)(=O)c1ccc(C)cc1 returned SARS PLpro yeast 0%, RE007 growth inh 8% and 2A StopGo -21%.
Screening CC1CN(C(=O)COC(=O)Cc2c(F)cccc2Cl)CC(C)O1 (configuration not stated) returned SARS PLpro yeast 10%, RE007 growth inh 0% and 2A StopGo -8%.
O=C(CCc1ccc(S(=O)(=O)N2CCOCC2)cc1)OCC(=O)c1ccc(Br)cc1 was read as SARS PLpro yeast -4%, RE007 growth inh -7% and 2A StopGo -8%.
For Cc1ccc(NC(=O)CN2CCCC2c2cccs2)cc1S(=O)(=O)N1CCCCC1 (configuration not stated) the results were SARS PLpro yeast 0%, RE007 growth inh -11% and 2A StopGo inconclusive.
Screening C=CC[C@H](CC(=O)N(CCO)Cc1ccccc1)C(=O)NCCOC(=O)[C@H](CC=C)CC(=O)OC(C)(C)C returned SARS PLpro yeast 2%, RE007 growth inh -11% and 2A StopGo -22%.
Screening Oc1ccc(Cl)cc1CNCc1ccc(Cl)cc1 returned SARS PLpro yeast 10%, RE007 growth inh -14% and 2A StopGo 19%.
O=C(OCC(=O)N1CCOCC1)c1cc(S(=O)(=O)N2CCOCC2)c(Cl)cc1Cl was read as SARS PLpro yeast -5%, RE007 growth inh 7% and 2A StopGo -22%.
`CCOc1ccc(NC(=S)C(C#N)=C2N(C)c3ccccc3N2C)cc1` gave SARS PLpro yeast 3%, RE007 growth inh 2% and 2A StopGo 7%.
For COc1ccc(NC(=O)Nc2cccc3c2O[C@H](CN(C)C(=O)NC(C)C)[C@@H](C)CN([C@H](C)CO)C3=O)cc1 the results were SARS PLpro yeast 4%, RE007 growth inh -10% and 2A StopGo 41%[activator].
`O=C1CC[C@@H](O)CCN1CC[C@H](Sc1ccc(Br)cc1)c1ccccc1` gave SARS PLpro yeast -15%, RE007 growth inh 4% and 2A StopGo 6%.
For CCc1nc2ccccc2c(C(=O)OCC(=O)Nc2ccc(NC(C)=O)cc2)c1C the results were SARS PLpro yeast -2%, RE007 growth inh -13% and 2A StopGo 32µM*.
For CCOC(=O)C1CCN(C(=O)c2cc(S(=O)(=O)N3CCOCC3)ccc2C)CC1 the results were SARS PLpro yeast -3%, RE007 growth inh -11% and 2A StopGo -7%.
Screening CC(C)CCNCC(O)CON=C1c2ccccc2-c2ccccc21 (configuration not stated) returned SARS PLpro yeast -6%, RE007 growth inh -15% and 2A StopGo -10%.
Screening COC(=O)c1ccc(CSC2=NC[C@@H]3[C@@H]4C(=O)N(C)C(=O)[C@@H]4[C@](Cc4ccccc4)(C(=O)OC)N23)cc1 returned SARS PLpro yeast -4%, RE007 growth inh -18% and 2A StopGo -20%.
`CCOC(=O)C1=CN(CC)S(=O)(=O)NC1c1ccc2ccccc2c1` (configuration not stated) gave SARS PLpro yeast -3%, RE007 growth inh 6% and 2A StopGo -24%.
For COc1ccc(C(CNC(=O)C(CCSC)NC(=O)c2ccccc2Cl)N2CCCC2)cc1 (configuration not stated) the results were SARS PLpro yeast 4%, RE007 growth inh -26% and 2A StopGo -5%.
`COCC(C)n1c(C)cc(C(=O)CSc2nnnn2C2CCCC2)c1C` (configuration not stated) gave SARS PLpro yeast -10%, RE007 growth inh 0% and 2A StopGo -16%.
COc1ccc(S(=O)(=O)Nc2ccc3cn[nH]c3c2)cc1[N+](=O)[O-] was read as SARS PLpro yeast 0%, RE007 growth inh 4% and 2A StopGo 22%.
For COc1ccc(S(=O)(=O)NCCCCCC(=O)O)cc1C(=O)O the results were SARS PLpro yeast -3%, RE007 growth inh -1% and 2A StopGo -2%.
`COc1cccc(NC(=O)CN(C)C(=O)c2ccc(S(=O)(=O)Nc3ccccc3C)cc2)c1` gave SARS PLpro yeast -9%, RE007 growth inh 7% and 2A StopGo -4%.
Screening COc1ccccc1NC(=O)CN1C(=O)NC2(CCCc3ccccc32)C1=O (configuration not stated) returned SARS PLpro yeast -1%, RE007 growth inh 9% and 2A StopGo -7%.
For COc1ccc(C2=CC(=O)C[C@H](c3ccc4c(c3)OCO4)C2)cn1 the results were SARS PLpro yeast 1%, RE007 growth inh 26% and 2A StopGo 9%.
For CCCCCCCCNc1ccccc1S(=O)(=O)NCc1ccccc1 the results were SARS PLpro yeast -7%, RE007 growth inh 3% and 2A StopGo 46%[activator].
Screening COCCNC(=O)N1[C@H]2CC[C@@H]1C(C(=O)OC)=C(c1ccc(OC(F)(F)F)cc1)C2 returned SARS PLpro yeast 2%, RE007 growth inh -9% and 2A StopGo -27%.
`O=C(COC(=O)C1COc2ccccc2O1)Nc1ccccc1OC(F)F` (configuration not stated) gave SARS PLpro yeast 3%, RE007 growth inh 9% and 2A StopGo -11%.
Screening CCOc1ncccc1C(=O)Nc1ccc(C(=O)Nc2ccc(OC)cc2)cc1 returned SARS PLpro yeast -3%, RE007 growth inh -1% and 2A StopGo -18%.
Screening Cc1cc(Cl)c(C)c(S(=O)(=O)N2CCN(CC(=O)N3CCOCC3)CC2)c1Cl returned SARS PLpro yeast 3%, RE007 growth inh 5% and 2A StopGo -19%.
Screening CC(=O)c1c(C)[nH]c(C(=O)NNC(=O)c2ccc(Br)cc2)c1C returned SARS PLpro yeast 7%, RE007 growth inh 10% and 2A StopGo -14%.
Screening COCc1c(C(=O)OCC(=O)N2CCCC2=O)oc2ccccc12 returned SARS PLpro yeast -4%, RE007 growth inh -1% and 2A StopGo -1%.
`COC(=O)C1(CC2CC(c3ccc(Cl)cc3)=NO2)CCN(C(=O)OC(C)(C)C)CC1` (configuration not stated) gave SARS PLpro yeast 6%, RE007 growth inh -10% and 2A StopGo 0%.
COc1ccc(/C(C)=N/NC(=O)CNC(=O)c2cccs2)cc1OC was read as SARS PLpro yeast 3%, RE007 growth inh -6% and 2A StopGo 30%.
For COc1ccc(CC(=O)N[C@@H]2c3cc(OC)c(OC)cc3C[C@H]2O)cc1 the results were SARS PLpro yeast 4%, RE007 growth inh -7% and 2A StopGo -20%.
`O=C(c1ncn(Cc2ccccc2)c1C(=O)N1CCc2ccccc2C1)N1CCc2ccccc2C1` gave SARS PLpro yeast -1%, RE007 growth inh -16% and 2A StopGo -1%.
CC(C)(C)OC(=O)[C@H](Cc1ccccc1)NC(=O)c1nc[nH]c1C(=O)NCCCCCN was read as SARS PLpro yeast inconclusive, RE007 growth inh 9% and 2A StopGo -15%.
C[C@H](CO)N1C[C@H](C)[C@@H](CN(C)C(=O)Nc2ccc3c(c2)OCO3)Oc2c(NC(=O)C3CC3)cccc2C1=O was read as SARS PLpro yeast -3%, RE007 growth inh 0% and 2A StopGo 28%.
Oc1ccc(C[C@@H]2CNCCN2CC2CCCCC2)cc1 was read as SARS PLpro yeast 5%, RE007 growth inh -1% and 2A StopGo -12%.
Screening COc1ccc(S(=O)(=O)N2CCCCC2)cc1NC(=O)CN(Cc1ccco1)Cc1ccco1 returned SARS PLpro yeast -4%, RE007 growth inh 11% and 2A StopGo inconclusive.
`Cn1c(O)c(C=Nc2ccc(Br)cc2)sc1=O` gave SARS PLpro yeast -1%, RE007 growth inh -5% and 2A StopGo 44%[activator].
Screening COc1ccc(C(=O)/C=C/Nc2c(C)n(C)n(-c3ccccc3)c2=O)c(OC)c1 returned SARS PLpro yeast 0%, RE007 growth inh -6% and 2A StopGo -4%.
For COc1ccc(N2CCN(C(CNC(=O)C(=O)NCc3ccncc3)c3ccco3)CC2)cc1 (configuration not stated) the results were SARS PLpro yeast 0%, RE007 growth inh -1% and 2A StopGo -15%.

The closing 2 entries of the part before lead into the next:
Screening COc1ccc(C(=O)/C=C/Nc2c(C)n(C)n(-c3ccccc3)c2=O)c(OC)c1 returned SARS PLpro yeast 0%, RE007 growth inh -6% and 2A StopGo -4%.
For COc1ccc(N2CCN(C(CNC(=O)C(=O)NCc3ccncc3)c3ccco3)CC2)cc1 (configuration not stated) the results were SARS PLpro yeast 0%, RE007 growth inh -1% and 2A StopGo -15%.
O=C(CSc1nnc(Cc2cccs2)n1C1CC1)NC1CCS(=O)(=O)C1 (configuration not stated) was read as SARS PLpro yeast -8%, RE007 growth inh 26% and 2A StopGo 10%.
Screening O=c1c2ccccc2nnn1COc1cccc2ccccc12 returned SARS PLpro yeast -3%, RE007 growth inh -18% and 2A StopGo 68%[activator].
`CCc1ccc(-n2c(SCC(=O)NC3CCS(=O)(=O)C3)nc3ccccc3c2=O)cc1` (configuration not stated) gave SARS PLpro yeast 0%, RE007 growth inh -14% and 2A StopGo -16%.
Screening CCC(C)(C)C1CCc2[nH]nc(C(=O)O)c2C1 (configuration not stated) returned SARS PLpro yeast -1%, RE007 growth inh 14% and 2A StopGo -15%.
`O=C(NCc1ccco1)c1cc(S(=O)(=O)N2CCCCC2)ccc1Cl` gave SARS PLpro yeast 4%, RE007 growth inh 7% and 2A StopGo 21%.
`COc1ccc(S(=O)(=O)N2CCOCC2)cc1NC(=O)CC1CC2CCC1C2` (configuration not stated) gave SARS PLpro yeast -5%, RE007 growth inh 13% and 2A StopGo -19%.
Screening COc1ccccc1CNC(=O)c1cc(-c2ccccc2C)n(CC2CC(c3cccc([N+](=O)[O-])c3)=NO2)n1 (configuration not stated) returned SARS PLpro yeast 5%, RE007 growth inh 42% and 2A StopGo -2%.
CCCCN(C(=O)c1cccc(-c2ccc(OC(C)=O)cc2)c1)c1c(N)n(CCC)c(=O)[nH]c1=O was read as SARS PLpro yeast -2%, RE007 growth inh -6% and 2A StopGo 9%.
`Cc1ccc(SCC(=O)Nc2cccc(S(=O)(=O)N3CCOCC3)c2)cc1C` gave SARS PLpro yeast -6%, RE007 growth inh 13% and 2A StopGo 30%[activator].
For Cc1ccc(S(=O)(=O)N2CCCCC2)cc1NC(=O)COC(=O)c1ccc(=O)[nH]c1 the results were SARS PLpro yeast -5%, RE007 growth inh -9% and 2A StopGo -10%.
Screening Cc1ccc(S(=O)(=O)NCC(=O)OCC(=O)Nc2ccc(C)c(S(=O)(=O)N3CCOCC3)c2)cc1 returned SARS PLpro yeast 3%, RE007 growth inh 4% and 2A StopGo 31%[activator].
For CCN(CC)S(=O)(=O)c1cccc(-c2n[nH]c(=S)n2Cc2ccccc2)c1 the results were SARS PLpro yeast -2%, RE007 growth inh 14% and 2A StopGo 1%.
Screening O=C(CN1CCCC1c1ccc2c(c1)OCCO2)NC(=O)Nc1ccccc1 (configuration not stated) returned SARS PLpro yeast inconclusive, RE007 growth inh -27% and 2A StopGo -3%.
`COc1ccc2cc(C(=O)NCc3ccccc3CN3CCCC3)ccc2c1` gave SARS PLpro yeast 14%, RE007 growth inh -6% and 2A StopGo -27%.
Screening COC(=O)c1ccc(N2CC3CNC(=O)C2(C(=O)OC)N3C)cc1 (configuration not stated) returned SARS PLpro yeast 6%&-6%, RE007 growth inh -6%&2% and 2A StopGo -4%&-11%.
`C=CC[C@@H](Cc1ccc(F)cc1)C(=O)OC[C@@H]1CCCN1C(=O)[C@@H](CC=C)CC(=O)N[C@H](CO)Cc1ccccc1` gave SARS PLpro yeast 5%, RE007 growth inh 6% and 2A StopGo inconclusive.
For O=C(CCCc1cccs1)Nc1ccc2c(c1)OCO2 the results were SARS PLpro yeast 0%, RE007 growth inh 0% and 2A StopGo 60%[activator].

From PubChem BioAssay
